ID4 binder: ID4 (human) binding | calls only | small molecule microarray, Flag-ID4 binding, fluorescence F/B | 1.2% of 31,000 active;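 active = spot signal over background at p below 0.07 in all four prints; compounds were printed on slides so no solution concentration is given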;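 note: a binder raises fluorescence above local background on the spot; about 2 pmol printed per array spot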
Target sequence (P47928 whole entry, looked up): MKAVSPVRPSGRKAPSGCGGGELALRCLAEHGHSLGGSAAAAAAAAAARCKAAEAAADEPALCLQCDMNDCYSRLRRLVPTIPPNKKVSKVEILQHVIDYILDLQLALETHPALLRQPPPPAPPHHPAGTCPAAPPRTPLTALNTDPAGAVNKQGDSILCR
Calls only; i = inactive; + = active, no number. These rows are one share of the data (hit frequency here may not be typical).

SMILES	ID4 binder
Cc1ccc(NC(=O)COc2ccc(CO)cc2Br)cc1	i
Cc1ccc(NC(=O)c2ccc(OC(=O)CN3C(=O)c4ccccc4C3=O)cc2)cc1	i
O=C(CN1C(=O)CN(c2ccccc2)C1=O)Nc1ccccc1[N+](=O)[O-]	i
CN(C)c1ccc2c(c1)[C@@H]1C[C@H](CC(=O)NCc3cccc(F)c3)O[C@@H](CO)[C@@H]1O2	i
CS(=O)(=O)Nc1ccc2c(c1)[C@H]1C[C@@H](CC(=O)NCc3ccc(Oc4ccccc4)cc3)O[C@H](CO)[C@H]1O2	i
O=C(Nc1ccc2c(c1)[C@H]1C[C@@H](CC(=O)N3CCCCC3)O[C@@H](CO)[C@H]1O2)C1CCC1	i
Cn1cnnc1SCCCN1C(=O)c2cccc3cccc(c23)C1=O	i
COc1ccc(-c2nnc(SCC(=O)N3c4ccccc4Sc4ccccc43)n2C)cc1	i
CC(=O)Nc1ccccc1-c1nnc(SCc2ccccc2Cl)[nH]c1=O	i
CCCN(C)C[C@H]1Oc2cc(-c3cccc(F)c3)ccc2S(=O)(=O)N([C@@H](C)CO)C[C@H]1C	i
O=C(c1ccc(NS(=O)(=O)c2cccc3cccnc23)cc1)N1CCOCC1	i
Cc1ccc(-c2nn(C(C)(C)C)c3ncnc(N)c23)cc1	i
Cc1ccc(C)c(NC(=O)C2CN(S(=O)(=O)c3ccccc3)CCN2S(=O)(=O)c2ccccc2)c1 (configuration not stated)	i
C/C=C/c1ccc([C@H]2[C@@H](CO)N(C(=O)NC3CCCC3)[C@H]2C#N)cc1	i
CCC(Sc1nnc2c3ccccc3n(C)c2n1)C(=O)Nc1ncccc1Cl (configuration not stated)	i
COc1ccc(C(=O)CSc2nc(C)[nH]c2[N+](=O)[O-])cc1Br	i
O=C(NCCCN1CCOCC1)c1cnn2c(C(F)F)cc(-c3ccccc3)nc12	i
Cn1c(SCc2nc(-c3ccccc3)no2)nnc1-c1ccco1	i
O=C(NCCOc1cccc(Oc2ccccc2)c1)c1cc(-n2cnnc2)ccc1Cl	i
COCC#Cc1ccc2c(c1)O[C@@H](CN(C)Cc1ccccc1)[C@H](C)CN([C@@H](C)CO)S2(=O)=O	i
C=CCNC(=O)[C@H]1[C@@H]2C(=O)O[C@@H](c3ccccc3)[C@@H](c3ccccc3)N2[C@@H](c2ccc(O)cc2)[C@]12C(=O)N(C(=O)OCCOC)c1ccc(C#CCC(C(=O)OC)C(=O)OC)cc12	i
CCn1c(SCC(=O)Nc2cc(C(F)(F)F)ccc2Cl)nnc1-c1cccnc1	i
C[C@H](CO)N1C[C@H](C)[C@@H](CN(C)Cc2ccncc2)Oc2ncc(-c3cccc(F)c3)cc2C1=O	i
C[C@H](CO)N1C[C@H](C)[C@@H](CN(C)Cc2cccc(C(=O)O)c2)Oc2ncc(/C=C/c3ccccc3)cc2C1=O	i
N#Cc1c(NC(=O)CSc2nc(-c3ccccc3)cc(C(F)(F)F)n2)sc2c1CCCCC2	i
COCC#Cc1cnc2c(c1)C(=O)N([C@@H](C)CO)C[C@H](C)[C@@H](CN(C)C(=O)CCN1CCCCC1)O2	i
COCC#Cc1cnc2c(c1)C(=O)N([C@H](C)CO)C[C@@H](C)[C@@H](CN(C)C(=O)NC1CCCC1)O2	i
O=C(C[C@@H]1CC[C@@H](NC(=O)c2cnccn2)[C@H](CO)O1)NCc1ccccc1F	i
O=C(C[C@H]1CC[C@H](NC(=O)NC2CCCCC2)[C@H](CO)O1)NCc1ccccc1	i
O=C(Nc1ccc2c(c1)[C@@H]1C[C@H](CC(=O)N3CCc4ccccc4C3)O[C@@H](CO)[C@@H]1O2)C1CCC1	i
CN1CCN(C(=O)C[C@@H]2CC[C@H](NS(=O)(=O)c3cccc(F)c3)[C@@H](CO)O2)CC1	i
COc1ccc(-n2nnnc2-c2c[nH]c3ccc(Cl)cc23)cc1	i
CO[C@H](CN(C)Cc1cc(F)ccc1F)[C@@H](C)CN(C(=O)Nc1ccc(C(F)(F)F)cc1)[C@H](C)CO	i
C[C@H]1CN([C@@H](C)CO)C(=O)c2cc(C3=CCCCC3)cnc2O[C@H]1CN(C)CC1CCOCC1	i
CC(C)(C)c1ccc(NC(=O)CCSc2nnnn2-c2ccccc2)cc1	i
COc1ccc(-c2cnc3c(c2)C(=O)N([C@@H](C)CO)C[C@@H](C)[C@H](CN(C)Cc2cccnc2)O3)cc1	i
COc1ccc(NC(=O)CN(C)S(=O)(=O)c2cc(Cl)ccc2Cl)cc1Cl	i
CC(C)c1cn(CC[C@H]2CC[C@@H](NC(=O)C3CCCC3)[C@@H](CO)O2)nn1	i
COc1ccc([N+](=O)[O-])cc1NC(=O)COc1ccc(Br)cc1Cl	i
CCCN(C)C[C@H]1Oc2cc(-c3ccccc3C)ccc2S(=O)(=O)N([C@@H](C)CO)C[C@H]1C	i

Ordered by number of heavy atoms (low to high): some entries from above
SMILES	ID4 binder
COc1ccc([N+](=O)[O-])cc1NC(=O)COc1ccc(Br)cc1Cl	i
COc1ccc(NC(=O)CN(C)S(=O)(=O)c2cc(Cl)ccc2Cl)cc1Cl	i
CO[C@H](CN(C)Cc1cc(F)ccc1F)[C@@H](C)CN(C(=O)Nc1ccc(C(F)(F)F)cc1)[C@H](C)CO	i

The listing continues:
SMILES	ID4 binder
CO[C@@H]1CN(C)C(=O)c2ccc(NC(=O)c3ccccc3)cc2OC[C@@H](C)NC[C@H]1C	i
COc1cc(C)c(Br)cc1S(=O)(=O)NCc1ccco1	i
C[C@H](CO)N1C[C@H](C)[C@H](CN(C)Cc2ccncc2)Oc2ncc(C#Cc3ccccc3)cc2C1=O	i
Cc1ccc(NC(=O)CCCn2cc([N+](=O)[O-])cn2)cc1C	i
O=C(Nc1sc2c(c1C(=O)NCc1cccnc1)CCCC2)c1ccc(Cl)cc1	i
O=C(CC(C(=O)O)N1CCOCC1)Nc1ccc(Cl)cc1 (configuration not stated)	i
Cc1ccc(NC(=O)Cn2c([N+](=O)[O-])cnc2C)cc1C	i
CC(C)c1ccc(NC(=O)CSc2nnc(-c3ccc(Cl)c(Cl)c3)n2C)cc1	i
CCOC(=O)c1c(NC(=O)CSc2cc(C)c3ccccc3n2)sc(C)c1C	i
CCCC#Cc1cnc2c(c1)C(=O)N([C@@H](C)CO)C[C@H](C)[C@@H](CN(C)C(=O)NC1CCCC1)O2	i

Some of the entries so far, field by field:
CC(C)c1ccc(NC(=O)CSc2nnc(-c3ccc(Cl)c(Cl)c3)n2C)cc1
  ID4 binder: i

CO[C@@H]1CN(C)C(=O)c2ccc(NC(=O)c3ccccc3)cc2OC[C@@H](C)NC[C@H]1C
  ID4 binder: i

O=C(Nc1sc2c(c1C(=O)NCc1cccnc1)CCCC2)c1ccc(Cl)cc1
  ID4 binder: i

C[C@H](CO)N1C[C@H](C)[C@H](CN(C)Cc2ccncc2)Oc2ncc(C#Cc3ccccc3)cc2C1=O
  ID4 binder: i

The list goes on:
SMILES	ID4 binder
COc1ccc(OC(C)C(=O)Nc2cc3oc4ccccc4c3cc2OC)cc1 (configuration not stated)	i
O=C(Cn1cnc2ccccc2c1=O)Nc1ccc(S(=O)(=O)N2CCOCC2)cc1	i
C[C@@H]1CN([C@@H](C)CO)C(=O)Cc2cc(NC(=O)C3CC3)ccc2O[C@H]1CN(C)Cc1ccccc1	i
CC(C)C#Cc1ccc2c(c1)O[C@H](CN(C)Cc1ccccc1)[C@H](C)CN([C@H](C)CO)S2(=O)=O	i
Cc1cc(C)nc(N2CC(=O)N(CCOc3ccc(Br)cc3)C2=O)n1	i
CCCC#Cc1cnc2c(c1)C(=O)N([C@H](C)CO)C[C@H](C)[C@@H](CN(C)Cc1ccncc1)O2	i
CCOc1ccc(NC(=O)CC2C(=O)NCCN2C(=O)Nc2ccccc2)cc1 (configuration not stated)	i
C[C@H]1CN([C@@H](C)CO)C(=O)c2cc(C3=CCCCC3)cnc2O[C@H]1CN(C)C(=O)c1cccc(F)c1	i
Cn1c(=O)c2c(nc(NCc3cccnc3)n2Cc2cccc(Br)c2)n(C)c1=O	i
O=C(C[C@@H]1CC[C@@H](NC(=O)c2ccc(F)cc2)[C@H](CO)O1)NCCc1ccccc1	i
O=C(Nc1ccc(Cl)cc1)Nc1ccc(S(=O)(=O)Nc2ncccn2)cc1	i
Cc1ccc(-c2nc3ncccc3o2)cc1NC(=O)COc1ccc(C2CCCCC2)cc1	i
C[C@@H]1CN([C@H](C)CO)C(=O)c2cc(-c3cccc(C(=O)N(C)C)c3)cnc2O[C@H]1CN(C)C(=O)Cc1ccccn1	i
CO[C@@H](CN(C)C(=O)C1CCOCC1)[C@H](C)CN(C(=O)Nc1ccc(C(F)(F)F)cc1)[C@@H](C)CO	i
COc1ccc(NC(=O)N(C)C[C@@H]2OCc3ccccc3-c3ccccc3C(=O)N([C@H](C)CO)C[C@@H]2C)c(OC)c1	i
COc1ccccc1C#Cc1ccc2c(c1)O[C@@H](CN(C)Cc1ccccc1)[C@H](C)CN([C@@H](C)CO)S2(=O)=O	i
CC(C)C#Cc1ccc2c(c1)O[C@@H](CN(C)CC1CCOCC1)[C@H](C)CN([C@@H](C)CO)S2(=O)=O	i
C[C@@H]1CN([C@H](C)CO)C(=O)c2ccccc2-c2ccccc2CO[C@@H]1CN(C)C(=O)c1ccncc1	i
COc1ccc(-c2cc(C)nc(SCC(=O)N3c4ccccc4Sc4ccccc43)n2)cc1	i
COC(=O)COc1cccc(NC(=O)c2cc(OC)c(OC)c(OC)c2)c1	i

Of the compounds above, these have a cyano group:
SMILES	ID4 binder
C/C=C/c1ccc([C@H]2[C@@H](CO)N(C(=O)NC3CCCC3)[C@H]2C#N)cc1	i
N#Cc1c(NC(=O)CSc2nc(-c3ccccc3)cc(C(F)(F)F)n2)sc2c1CCCCC2	i

(more compounds)
SMILES	ID4 binder
Cc1ccc(NC(=O)CC2NC3CCCCC3NC2=O)cc1Cl (configuration not stated)	i
COC(=O)c1cccc(OCC(O)Cn2ccnc2)c1 (configuration not stated)	i
COCCOC(=O)N1C(=O)[C@@]2(c3cc(C#Cc4ccc(OC)cc4)ccc31)[C@H](C(=O)NC[C@H](O)c1ccccc1)[C@H]1C(=O)O[C@H](c3ccccc3)[C@H](c3ccccc3)N1[C@@H]2c1ccc(O)cc1	i
CCC(=O)N[C@@H]1C=C[C@H](CC(=O)NCc2ccccc2OC)O[C@@H]1CO	i
O=C(C[C@H]1C=C[C@@H](NC(=O)c2cccc(F)c2)[C@@H](CO)O1)NCc1ccccc1	i
C/C=C/c1cnc2c(c1)C(=O)N([C@@H](C)CO)C[C@H](C)[C@H](CN(C)C(=O)Cc1ccccc1)O2	i
CCOC(=O)c1c(NC(=O)C(C)n2nc(C)c([N+](=O)[O-])c2C)sc(C)c1C (configuration not stated)	i
C[C@@H]1CN([C@@H](C)CO)C(=O)Cc2cc(N(C)C)ccc2O[C@@H]1CN(C)Cc1ccc2c(c1)OCO2	i
O=C(CCN1C(=O)c2ccccc2S1(=O)=O)NCc1ccco1	+
COc1ccc(Cl)cc1NC(=O)CCCN1C(=O)c2ccccc2C1=O	i
COc1cccc(NC(=O)N[C@@H]2CC[C@H](CC(=O)Nc3ccc(-c4ccccc4)cc3)O[C@@H]2CO)c1	i
Cc1ccc(NC(=O)CSc2nccc(C)n2)cc1	i
COc1ccc(OC)c(NC(=O)CC2Sc3ccccc3NC2=O)c1 (configuration not stated)	i
C[C@H](CO)N1C[C@H](C)[C@H](CN(C)S(C)(=O)=O)Oc2cc(-c3ccccc3F)ccc2S1(=O)=O	i
C/C=C/c1cnc2c(c1)C(=O)N([C@@H](C)CO)C[C@H](C)[C@H](CN(C)C(=O)c1ccc3c(c1)OCO3)O2	i
O=C(N[C@@H]1CC[C@H](CC(=O)N2CCOCC2)O[C@@H]1CO)c1cccc(F)c1	i
C[C@H](CO)N1C[C@H](C)[C@H](CN(C)C(=O)NC2CCCCC2)OCc2ccccc2-c2c(n(C)c3ccccc23)C1=O	i
COc1ccc2c(c1)C(O)(CC(=O)c1ccc3ccccc3c1)C(=O)N2 (configuration not stated)	i
CN(C)c1ccc2c(c1)[C@@H]1C[C@@H](CC(=O)NC3CCCCC3)O[C@@H](CO)[C@@H]1O2	i
COc1cccc(N(CC(=O)Nc2ccc(OC)c(Cl)c2)S(C)(=O)=O)c1	i
C[C@@H]1CN([C@@H](C)CO)C(=O)c2cc(-c3cccc(F)c3)cnc2O[C@H]1CN(C)CC1CCCC1	i
CCCN(C)C[C@H]1Oc2ncc(-c3ccccc3OC)cc2C(=O)N([C@@H](C)CO)C[C@@H]1C	i
C[C@@H]1CN([C@H](C)CO)C(=O)c2cc(/C=C/c3ccccc3)cnc2O[C@@H]1CN(C)C(=O)C1CCC1	i
COC(=O)[C@]1(CO)N=C(c2ccc(OCCCO)cc2)O[C@@H]1c1ccccc1CN=[N+]=[N-]	i
C[C@@H]1CN([C@H](C)CO)S(=O)(=O)c2ccc(C#CC3(O)CCCC3)cc2O[C@H]1CN(C)C(=O)c1ccncc1	i
COC(=O)C[C@H]1CC[C@@H](NC(=O)c2ccccc2)[C@H](CO)O1	i
COc1ccc(Nc2nc(N)nc(CSC(=S)N(C)C3CCCCC3)n2)cc1	i
CC(C)(C)c1ccc(C(=O)NCCNc2ccccc2[N+](=O)[O-])cc1	i
O=S(=O)(NC1CCN(Cc2ccc(OCCO)cc2)CC1)c1cc(Cl)ccc1Cl	i
CC(C)CC#Cc1cnc2c(c1)C(=O)N([C@@H](C)CO)C[C@H](C)[C@H](CN(C)Cc1ccccn1)O2	i
O=C(CSc1n[nH]c(-c2ccccc2)n1)Nc1ccc(F)cc1	i
COc1ccc(CN(C)C[C@H]2Oc3ccc(N(C)C)cc3CC(=O)N([C@@H](C)CO)C[C@H]2C)cc1	i
COC(=O)Cn1c(=O)n(Cc2ccco2)c(=O)c2c3c(sc21)CCCC3	i
CCC(=O)N(C)C[C@H]1Oc2cc(-c3ccccc3C)ccc2S(=O)(=O)N([C@H](C)CO)C[C@@H]1C	i
